Source: PubChem
rRNA inh HTS = inhibits bacterial ribosomal RNA function over humanized ribosomes. E. coli WT GFP vs humanized-ribosome RFP mutants, fluorescence, 24 h; stronger effect = lower value; DMSO median 0, no signal -100. GFP signal change (wild-type ribosome), % (concentration not given with the values). actives 1.6% (n = 350,000);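 active = significant combined selectivity score with lowered wild-type GFP, culture density cut under 30%, mutant RFP and density less affected; inactive = any of these conditions unmet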; also: one replicate is shown; some compounds called inactive have numbers as strong as hits
Calb FLC = C. albicans growth modulation with fluconazole. actives 0.57% (n = 300,000). growth inhibition, % (no concentration beside the values). C. albicans CaCi-2 (fluconazole-resistant clinical isolate) + fluconazole, Alamar Blue growth, 48 h. AID 1979;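 active = most replicates above 75%; inconclusive = exactly half above 75%; inactive = most below 75%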;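 also: all wells also contain fluconazole at 8 µg/ml as a sub-toxic cotreatment; 0% = median of DMSO wells and 100% = median of geldanamycin control wells; wells of about 8 µL received 7.5 nL stock; the first replicate is given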
B2AR ag = agonists of human beta-2 adrenergic receptor inducing internalization | Am2.2-beta2AR cells, FAP receptor internalization, flow cytometry; reference of the scale not given here | response, % (concentration not given with the values) | actives 0.43% (n = 340,000) | AID 504454;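 active = response above a set limit, near 3 SD of response in nonfluorescent compounds, cut at about 42% in these data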;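 also: stock transfer was 100 nL into about 11 µL; a reference agonist was the positive control; negative values mostly stem from fluorescent compounds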
ALR H2O2 inh = inhibitors of human sulfhydryl oxidase ALR | purified ALR, DTT oxidation, H2O2 HRP-luminol luminescence | inhibition, % (concentration not given with the values) | actives 3.8% (n = 290,000);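 active = mean and each replicate at 75% or more; inconclusive = only one of the two met; inactive = neither met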;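 also: stock transfer was 7.5 nL into about 7.5 µL; 0% = neutral wells and 100% = wells with inactivated enzyme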
T cruzi repl = blocks replication of Trypanosoma cruzi | T. cruzi beta-gal in NIH3T3, luminescence, 90 h | actives 1.4% (n = 300,000) | inhibition, % (test concentration not listed);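 active = mean inhibition across valid replicates above about 55%, limit read from the data; inconclusive = mean below that limit but half or more replicates reach it; inactive = mean below it, under half of replicates reach it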;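 also: signal also drops with host cell toxicity which is not excluded here; 0% = plate median of DMSO wells and 100% = zero luminescence signal; higher percent means less beta-gal luminescence so fewer parasites; stock transfer was 50 nL into about 50 µL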
Beta cell apopt = beta cell apoptosis inhibition. INS-1E cytokine-induced death, ATP luminescence, 48 h; percent of positive-control rescue, neutral wells zero. protection from apoptosis, % (test concentration not listed). actives 0.8% (n = 300,000). AID 435005;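 active = all replicates at 75% or more, or half of them and the mean; inconclusive = half reach 75% but not the mean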;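 also: 0% = cytokine-treated negative control wells and 100% = positive control rescue; higher means more ATP so stronger rescue from cytokine killing; wells of about 40 µL received 100 nL stock; the first replicate is given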
A1 inh = inhibitors of the anti-apoptotic protein A1, read as caspase activation | caspase activation, % (concentration not given with the values) | MEF A1-2A-BIM cells, Caspase-Glo 3/7 luminescence, 3 h; percent of clofoctol response, vehicle zero | actives 0.066% (n = 330,000) | AID 2462;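 active = over half of replicate activation scores above 10%, or exactly half above 10 with the replicate mean above 10; inconclusive = replicate mean below 10 yet half the replicates above 10; inactive = over half of replicates below 10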;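 also: wells of about 30 µL received 50 nL stock; many hits fall short of the cut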
LANA-H2A inh = blocks KSHV LANA binding to histone H2A/H2B | Q9QR71 | cell-free LANA-H2A/H2B peptide, fluorescence polarization | inhibition, % (concentration not given with the values) | actives 0.6% (n = 320,000); in the data active = inhibition mostly above about 10%, no sharp cut-off; inactive = mostly below about 6.7%;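 also: stock transfer was 7.5 nL into about 10 µL; 0% = median of vehicle wells and 100% = median of positive control wells; one replicate is shown; the record names a cut of 25% in any replicate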
Target sequence (Q9QR71 whole entry, looked up): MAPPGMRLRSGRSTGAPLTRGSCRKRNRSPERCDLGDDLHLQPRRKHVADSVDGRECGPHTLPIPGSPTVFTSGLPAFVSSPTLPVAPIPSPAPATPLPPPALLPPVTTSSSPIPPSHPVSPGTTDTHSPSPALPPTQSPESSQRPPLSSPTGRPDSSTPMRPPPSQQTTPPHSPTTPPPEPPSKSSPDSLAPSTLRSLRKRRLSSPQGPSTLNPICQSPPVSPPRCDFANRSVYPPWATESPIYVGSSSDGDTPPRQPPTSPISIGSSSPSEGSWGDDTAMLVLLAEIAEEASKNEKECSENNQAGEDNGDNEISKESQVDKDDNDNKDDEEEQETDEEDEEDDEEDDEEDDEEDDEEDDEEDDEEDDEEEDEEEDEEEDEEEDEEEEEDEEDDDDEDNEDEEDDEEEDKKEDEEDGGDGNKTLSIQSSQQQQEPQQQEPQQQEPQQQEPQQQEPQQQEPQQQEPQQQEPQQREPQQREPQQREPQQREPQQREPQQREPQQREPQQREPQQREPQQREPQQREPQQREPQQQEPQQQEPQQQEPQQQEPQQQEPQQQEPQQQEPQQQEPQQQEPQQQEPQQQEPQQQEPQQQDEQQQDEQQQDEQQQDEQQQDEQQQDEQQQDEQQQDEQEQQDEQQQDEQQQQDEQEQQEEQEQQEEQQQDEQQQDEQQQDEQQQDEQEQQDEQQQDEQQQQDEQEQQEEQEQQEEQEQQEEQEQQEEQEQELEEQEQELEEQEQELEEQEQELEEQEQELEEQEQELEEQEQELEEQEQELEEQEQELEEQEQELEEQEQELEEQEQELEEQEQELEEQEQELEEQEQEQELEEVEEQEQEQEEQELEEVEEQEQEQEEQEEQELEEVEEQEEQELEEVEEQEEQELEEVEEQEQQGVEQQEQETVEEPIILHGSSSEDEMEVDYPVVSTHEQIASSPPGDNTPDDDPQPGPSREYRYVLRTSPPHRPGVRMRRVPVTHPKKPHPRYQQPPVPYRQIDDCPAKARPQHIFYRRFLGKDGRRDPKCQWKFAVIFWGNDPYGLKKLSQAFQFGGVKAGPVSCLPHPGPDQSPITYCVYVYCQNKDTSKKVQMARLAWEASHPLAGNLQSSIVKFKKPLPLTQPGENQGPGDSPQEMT
rRNA inh HTS OD600 = second read-out of rRNA inh HTS, no call of its own (marks repeat the call); OD600 change, %; measured here: OD600 growth;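 optical density of the mix in the first replicate; 0 = DMSO median and -100 = no signal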
rRNA inh HTS RFP = recorded beside rRNA inh HTS, whose call it bears; RFP signal change, %; measured here: RFP humanized mutant strains;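 first replicate; 0 = DMSO median and -100 = no signal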
* marks the source's active call; other numbers are inactive results; u = inconclusive; x = no result given; + = active, no number. Not all compounds are listed (hit frequency here may not be typical).

SMILES	rRNA inh HTS	rRNA inh HTS OD600	rRNA inh HTS RFP	Calb FLC	B2AR ag	ALR H2O2 inh	T cruzi repl	Beta cell apopt	A1 inh	LANA-H2A inh
CCCC[C@H]1C2=C3[C@@H](CC(C(=O)OC)=C[C@@H](C(=O)OC)[C@H]3C(C)(C)C2=O)n2c(=O)n(-c3ccccc3)c(=O)n21	0	0	-2.2	-3	0	-10	14	-5	0.4	2.5
O=C1/C(=C\c2ccco2)NC(=S)N1c1ccccc1	13	17	8.4	30	-11	-10	-53	-7	-0.7	5.3
Cc1ccc2c(C)cc[n+](CCCS(=O)(=O)[O-])c2c1	x	x	x	-2	14	-44	18	-7	0.9	0.4
O=C(NNC(=O)C1CC=CCC1)c1ccccc1Cl (stereo unspecified)	-4	3	-0.5	1	-1	-1	13	-7	0.4	-1.1
Cc1cc(C)n2nc(C(=O)OCC(=O)Nc3cc(Cl)ccc3C)nc2n1	19	20	1.7	x	-5	-5	x	5	-0.4	x
Cc1c(C(=O)N/N=C/c2ccc(N(C)C)cc2)[nH]c2ccc(Cl)cc12	-9	-10	-1.4	-2	5	9	1	28	-0.1	-6.5
O=C(Nc1ccc(S(=O)(=O)N2CCCC2)cc1)c1cccc(OC(F)F)c1	-16	-16	-4.7	x	8	-8	13	3	0.5	-1.2
CC(C)C(CO)N1CCN(Cc2ccccc2)CCC1=O (stereo unspecified)	7	1	-2.0	-8	1	3	-11	6	0.7	0.2
CCn1cnnc1SCC(=O)c1c(N)n(C2CC2)c(=O)[nH]c1=O	3	14	-5.3	x	-2	4	x	-2	0.1	1.5
Cc1nn(CC(=O)N(CC(C)C)C2CCS(=O)(=O)C2)c(C)c1[N+](=O)[O-] (stereo unspecified)	13	9	0.2	x	0	-13	x	7	1.6	0.9
CCOC(=O)c1c(NC(=S)NC)sc2c1CC(C)(C)SC2	-19	-35	-3.2	91*	9	-8	-9	8	-0.4	1.2
[O-][n+]1c2ccccc2cc2ccccc21	-14	-38	17	-1	-7	x	8	15	0.3	18*
CCOC(=O)c1cc(S(=O)(=O)N2CCN(C(=O)OCC)CC2)cn1C	x	x	x	-6	-9	x	0	-6	-0.1	2.8
CCN(CC)C(=O)Oc1ccc2c(=O)c(-c3ccc(OC)cc3)c(C)oc2c1	x	x	x	40	11	-28	5	7	1.1	1.1
Cc1ccccc1-c1nsc(SCC(=O)NCc2ccc3c(c2)OCO3)n1	9	11	1.1	-40	-11	-11	23	6	0.5	5.1
NC(=S)NN=C1C2CC3CC(C2)CC1C3	12	9	3.2	4	-10	6	17	5	0.9	2.4
COc1cccc(C2NC(=O)NC(C)=C2C(=O)Nc2cc(OC)ccc2OC)c1 (stereo unspecified)	x	x	x	-1	-13	-52	2	x	-1.0	1.8
Cc1n[nH]c(=S)n(/N=C/c2cccs2)c1=O	7	7	3.5	-6	3	26	2	1	0.1	1.1
Cc1noc(C)c1CSc1nc2ccccc2c(=O)n1-c1ccccc1	x	x	x	5	-6	2	34	29	-0.3	0.8
COc1ccc(/C=C/C(=O)OCC(=O)NCC2CCCO2)cc1 (stereo unspecified)	9	5	1.1	6	11	0	-21	5	-1.1	-1.0
Cc1n[nH]c(=O)c2c1nnn2Cc1ccc(F)cc1	8	5	0.7	0	3	-1	-3	-5	0.4	-5.7
CC(=O)Nc1ccc(S(=O)(=O)NCCC(=O)OCC(=O)c2ccccc2)cc1	7	8	-2.0	-19	1	-26	-5	-6	0.1	0.3
O=C(CCCN1C(=O)c2ccccc2C1=O)Nc1nnc(C2CC2)s1	14	9	-0.1	u	9	-5	-24	-2	0.4	8.0
Cc1nc2nc(SCC(=O)NCCCN3CCCC(C)C3)nn2c(C)c1Cc1ccccc1Cl (stereo unspecified)	2	7	-0.9	-6	-11	x	17	-7	-1.5	2.3
CC(=O)N=c1c(C#N)cc2c(=O)n3cccc(C)c3nc2n1Cc1ccco1	7	-11	-0.3	-2	-4	36	-4	0	-0.1	-3.0

LANA-H2A inh, hit marks shown above
| structure | rRNA inh HTS | rRNA inh HTS OD600 | rRNA inh HTS RFP | B2AR ag | ALR H2O2 inh | LANA-H2A inh |
| --- | --- | --- | --- | --- | --- | --- |
| [O-][n+]1c2ccccc2cc2ccccc21 | -14 | -38 | 17 | -7 | x | 18* |

Later entries:
SMILES	rRNA inh HTS	rRNA inh HTS OD600	rRNA inh HTS RFP	Calb FLC	B2AR ag	ALR H2O2 inh	T cruzi repl	Beta cell apopt	A1 inh	LANA-H2A inh
CC1(C)OC2C(CO)OC(n3cnc4c(=S)nc[nH]c43)C2O1 (stereo unspecified)	9	0	-0.6	3	3	25	8	-2	0.4	-2.6
C/C(=N\NC(=S)Nc1ccc(C(C)C)cc1)c1ccc2c(c1)OCO2	-10	-1	-3.1	-25	-3	-1	29	13	-0.2	-0.6
On1c(-c2ccc(Cl)cc2)nc2ccccc21	-13	-14	-2.4	7	-2	-2	-5	1	0.3	-2.7
O=C(O)C1CCN(C(=O)CSc2nnc(-c3ccccc3)o2)CC1	3	4	-1.7	x	-7	0	x	1	0.5	-4.9
Nc1ccc2c(c1)OCCOCCOCCOCCOCCO2	10	2	4.5	49	5	98*	9	-1	0.2	6.2
CCOC(=O)Cn1ccc(-c2ccccc2)c(C#N)c1=O	0	-6	-8.7	0	0	x	-3	-6	-0.3	-2.1
CCN(c1ccccc1)S(=O)(=O)c1cc2c3c(c1)CCN3C(=O)CC2	-1	-15	1.0	x	4	-1	10	4	-0.1	0.2
CCNS(=O)(=O)c1ccc(CCC(=O)NC2CCCC2)cc1	x	x	x	0	-1	21	-6	-4	1.3	-3.7
Cc1sc2ncnc(SCC(=O)Nc3ncccc3O)c2c1C	-9	-41	15	x	5	-27	x	-1	0.4	-0.6
CN(C(=O)c1ccc2c(c1)SC1=NS(=O)(=O)CCN12)C(c1ccccc1)c1ccccc1	x	x	x	8	-20	-3	-32	-2	0.4	-2.3
Cc1cc(C)cc(NC(=O)CCCN2C(=O)C(c3ccccc3)Oc3cccnc32)c1 (stereo unspecified)	0	-17	5.9	-19	-4	-1	-1	-1	1.1	14*
COC(=O)c1ccc(/C=C/C(=O)c2cccc(OC)c2)cc1	-18	-12	-3.2	-4	6	x	-19	-6	0.4	-7.5
COc1ccc(CNC(=O)C2CCCN(S(=O)(=O)c3ccc4c(c3)C(C)(C)C(=O)N4C)C2)cc1 (stereo unspecified)	-4	-9	2.8	4	1	-4	4	3	1.2	2.3
CCC(C)(C)NC(=O)C1CCN(c2nc(C)cc(C)n2)CC1	x	x	x	-35	5	-2	-2	4	0.5	-11
Cc1nn(-c2nc(-c3ccco3)cc(C(F)(F)F)n2)c(C)c1Br	x	x	x	0	-3	-4	10	0	1.4	0.0
COc1ccccc1OCCn1cc(C(=O)C(C)C)c2ccccc21	16	8	1.7	-1	2	-1	4	2	1.4	-4.6
Cc1ccc(SCC(=O)Nc2cc(C)on2)cc1	x	x	x	-2	-1	3	-27	-16	-0.5	-4.5
Cc1cccc(OCc2nc(C#N)c(NCCN(C)C)o2)c1	3	11	2.4	-4	-2	0	-20	x	0.9	3.9
Nc1cc(-c2nn[nH]n2)ccc1F	x	x	x	3	12	2	-1	0	-0.1	-1.1
Cc1cc(NC(=O)c2ccc3c(c2)C(=O)N(C(C)(C)C)C3=O)no1	9	17	-0.9	-1	-17	8	3	x	0.7	5.3
CN(Cc1ccccc1)C(=O)c1[nH]cnc1C(=O)N[C@@H](CCCCNC(=O)OC(C)(C)C)C(=O)OC(C)(C)C	x	x	x	2	10	-19	6	-2	0.9	-0.7
CCCCC(=O)Nc1cccc(C(=O)N/N=C/c2ccc(OC)cc2OC)c1	x	x	x	0	-3	x	-8	0	0.0	-0.5
FC(F)(F)COc1nc(OCC(F)(F)F)nc(N2CCN(c3ccccc3)CC2)n1	x	x	x	88*	-11	-8	x	5	-0.2	2.7
COc1cccc(C2/C(=C(/O)c3ccc4c(c3)CC(C)O4)C(=O)C(=O)N2c2nnc(C)s2)c1 (stereo unspecified)	-2	-5	1.8	-4	0	14	-10	x	0.9	-0.9
CC1=Nc2cc(C(=O)NCC3CCCO3)ccc2Sc2ccc(C)cc21 (stereo unspecified)	-3	-7	0.8	-36	13	-1	3	13	-1.8	-1.3

Remaining list, next part
SMILES	rRNA inh HTS	rRNA inh HTS OD600	rRNA inh HTS RFP	Calb FLC	B2AR ag	ALR H2O2 inh	T cruzi repl	Beta cell apopt	A1 inh	LANA-H2A inh
Cc1cccc(C(=O)NCc2nnc(SCC(=O)NC3=NCCS3)n2C)c1	1	1	-1.4	-3	1	x	-5	-18	-0.7	-4.0
Cc1nc2ccc(NC(=O)[C@@H](NC(=O)c3c(F)cccc3F)C(C)C)cc2s1	2	10	-0.9	x	8	-9	x	-2	-0.5	+
CC(=O)Nc1ccc(S(=O)(=O)N2CCN(CC(=O)N3CCOCC3)CC2)cc1	8	6	2.6	1	-2	-11	3	0	0.4	0.7
O=C1CCc2cc(S(=O)(=O)NCCC(=O)N3CCN(c4cccc(Cl)c4)CC3)ccc2N1	x	x	x	x	-3	12	x	2	0.1	-8.1
C=Cc1ccc(Cn2nc(-c3ccccc3)ccc2=O)cc1	-50	-75	-6.7	26	8	32	-1	-10	-0.5	2.3
O=C(CN1CCC(NC(=O)c2ccc(Br)cc2)CC1)NCc1cccs1	3	5	-0.6	-4	-6	-5	-8	-8	0.5	2.5
CCC(=O)N1CCN(c2nnc(-c3ccccc3)c3ccccc23)CC1	-1	-1	-1.1	0	-10	1	-7	-3	-0.5	-2.1
CN(C)S(=O)(=O)c1cccc(NC(=S)N2CCCCC2CO)c1 (stereo unspecified)	10	2	2.0	-5	-1	-1	6	0	-0.9	-1.7
COc1ccc(C(=O)Nc2ccc3nc(N4CCCCC4)cc(C)c3c2)c(OC)c1	16	12	2.9	-9	x	0	30	-3	0.4	-3.5
COc1cc(-c2nc3cnccn3c2Nc2ccc(C)cc2)ccc1O	-41*	-25*	-6.2*	4	2	99*	14	-24	-4.2	0.2
O=C(O)c1ccccc1SC1CC(=O)N(c2ccc3c(c2)OCO3)C1=O (stereo unspecified)	21	14	-0.7	-3	1	-8	-14	-3	0.5	2.5
Cc1ccc(S(=O)(=O)N2C=CC(C(F)(F)F)=NCC2)cc1	x	x	x	-6	-8	-2	0	-4	-0.2	-2.3
CCOC(=O)C1CCN(S(=O)(=O)c2cn(C)cn2)CC1	3	9	-0.2	-1	-7	-7	-24	-2	-1.2	3.7
CCn1c(SCC(=O)NC2CCS(=O)(=O)C2)nnc1-c1ccccc1 (stereo unspecified)	11	-12	0.4	-29	1	11	-11	-4	-0.1	-1.3
CCC(C)c1ccccc1NC(=O)C(C)Sc1n[nH]c(N)n1 (stereo unspecified)	6	7	-1.8	x	0	-1	x	-5	0.3	-0.8
CCOc1cc(S(=O)(=O)NC2CCCCC2)ccc1F	x	x	x	-16	-13	-2	-12	9	0.9	-2.1
O=C(NCCCN1CCOCC1)c1ccc(NC(=O)C2COc3ccccc3O2)cc1 (stereo unspecified)	2	8	-2.7	9	3	-9	18	1	0.5	-0.9
